KCNQ2 block: KCNQ2 potassium channel inhibitors, primary screen, cell-based, CHO-K1, FluxOR thallium flux, B-score (AID 2156); hit rate 1.1% among 310,000; 20 min; stronger effect = lower value; only compounds with negative scores are shown here; some inactives read as strong as hits; B-score at 10 µM; O88943;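 active = fluorescence ratio B-score at most minus 3 library SDs, with starting brightness B-score within 2 library SDs, cut at about -5.5 in these data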
Target sequence (O88943 whole entry, looked up): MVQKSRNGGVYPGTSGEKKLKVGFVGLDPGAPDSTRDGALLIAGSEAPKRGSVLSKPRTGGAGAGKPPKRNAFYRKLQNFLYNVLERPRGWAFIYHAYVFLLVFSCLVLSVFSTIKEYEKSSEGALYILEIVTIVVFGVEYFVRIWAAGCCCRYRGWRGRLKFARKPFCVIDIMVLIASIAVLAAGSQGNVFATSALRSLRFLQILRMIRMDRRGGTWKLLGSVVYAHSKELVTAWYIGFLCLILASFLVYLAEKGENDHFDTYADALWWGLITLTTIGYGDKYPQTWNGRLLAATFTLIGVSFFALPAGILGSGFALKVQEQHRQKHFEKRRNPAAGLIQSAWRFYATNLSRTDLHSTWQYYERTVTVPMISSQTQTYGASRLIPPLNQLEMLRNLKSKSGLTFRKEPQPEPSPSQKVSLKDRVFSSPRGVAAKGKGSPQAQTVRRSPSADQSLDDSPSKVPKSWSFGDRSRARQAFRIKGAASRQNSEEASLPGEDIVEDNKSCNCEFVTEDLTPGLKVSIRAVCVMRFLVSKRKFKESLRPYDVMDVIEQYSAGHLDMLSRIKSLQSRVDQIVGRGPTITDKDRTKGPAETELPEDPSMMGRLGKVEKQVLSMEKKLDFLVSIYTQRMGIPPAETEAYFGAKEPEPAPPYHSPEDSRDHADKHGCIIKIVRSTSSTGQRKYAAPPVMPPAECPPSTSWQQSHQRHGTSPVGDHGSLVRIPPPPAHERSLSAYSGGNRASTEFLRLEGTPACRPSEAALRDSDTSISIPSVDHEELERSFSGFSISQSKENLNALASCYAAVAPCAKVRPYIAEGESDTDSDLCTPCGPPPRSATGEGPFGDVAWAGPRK
KCNQ2 block baseline: recorded beside KCNQ2 block, whose call it bears; B-score; measured here: initial fluorescence intensity artifact check;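 brightness before thallium and not channel activity; 0 = typical well and far values either way flag optical interference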
Starred values were filed as active, the others as inactive; i = inactive.

SMILES | KCNQ2 block | KCNQ2 block baseline
COC(=O)C1=C(C(=O)OC)[C@@H]2N(C)c3ccc(OC)cc3[C@@]23C[C@@H](C(=O)OC)N(C(=O)CC(C)C)C3=N1 | i | -0.86
O=C(COC(=O)Cc1ccc(Cl)c(Cl)c1)Nc1ccc2[nH]c(=O)[nH]c2c1 | i | -1.1
COc1cc(OC)cc(C(=O)N[C@H](C(=O)Nc2nnc(C3CC3)s2)C(C)C)c1 | i | 0.02
COc1ccc(C(=O)Nc2c3c(nn2-c2ccc(Cl)cc2)CS(=O)(=O)C3)cc1 | i | -1.2
CCOC(=O)COc1ccc(N)cc1CC(NC(C)=O)(C(=O)OCC)C(=O)OCC | i | -0.84
Cc1ccc(OC(=O)c2cc3ccccc3o2)cc1 | i | -3.2
CC(C)c1ccc(OC(=O)c2cccc(S(=O)(=O)N3CCN(C)CC3)c2)cc1 | i | 0.64
O=C(CSc1nc2cc(Cl)c(Cl)cc2[nH]1)c1ccc2c(c1)OCO2 | i | -2.9
O=C(c1cc2ccccc2o1)N(C1CC1)C1(C(=O)Nc2ccccc2)CCCC1 | i | 0.26
Cc1nc(CCNC(=O)CC2C(=O)NCCN2Cc2ccc(F)cc2)sc1C (configuration not stated) | i | -0.04
COC(=O)Cc1c(C)nc(SCc2ccccc2)[nH]c1=O | i | 0.4
Cc1ccccc1C(=O)OCc1nnc(-c2ccc(Cl)cc2)o1 | i | 1.7
CC1(C)Cc2ccccc2C(/C(=N/O)C(N)=O)=N1 | i | 3
COC(=O)c1nn(-c2nc(-c3cccc(OC)c3)cc(C(F)(F)F)n2)cc1[N+](=O)[O-] | i | -0.62
O=C(NC1=NCCS1)c1cc(Cl)ccc1Cl | i | 0.83
Cn1cccc1C(=O)NC(=O)COC(=O)c1ccccc1Sc1ccccc1C#N | i | -0.74
Cc1ccc(NC(=O)c2ccccc2NS(=O)(=O)c2ccc(F)cc2)cc1S(=O)(=O)N1CCCCC1 | i | -1.5
O=C1C(SC(F)(F)C(F)F)=C(C(F)(F)F)OC2C3C=CC(C3)C12 (configuration not stated) | i | -1.7
O=C(Nc1ccc(Br)cc1)/C(=C/c1cccc([N+](=O)[O-])c1)NC(=O)C1CCCCC1 | -7.7* | 1.8*
O=C(COc1ccccc1)Nc1ccc2c(c1)nc1n2CCSC1 | i | 0.02
Cc1c(Cl)cccc1NC(=S)NC1CCN(Cc2ccccc2)CC1 | i | -0.16
Clc1ccccc1Cn1nnc2c(Nc3ccccc3)ncnc21 | i | -0.01
CC1CCN(C(=O)CN(C)S(=O)(=O)c2cccc3nsnc23)CC1 | i | -1.5
Cc1ccc(NC(CC(=O)c2ccccc2)C(=O)O)cc1Cl (configuration not stated) | i | -0.62
Cc1ccc(NS(=O)(=O)c2cc([N+](=O)[O-])ccc2NNC(=S)Nc2cc(C)ccc2C)c(C)c1 | i | -2.3
CCc1nc(C)ccc1OC(=O)C12CC3CC(CC(C3)C1)C2 | i | 1.1
COc1ccc(O)c(C(=O)c2coc(=N)c(C(=O)Nc3ccc(SC(F)F)cc3)c2)c1 | i | 0.67
CCCC1CC(C)(C(=O)Cn2[nH]c(=O)ccc2=O)OC1=O (configuration not stated) | i | -0.68
O=S(=O)(c1ccccc1)N1N=C(c2ccc(Br)cc2)CC1c1ccco1 (configuration not stated) | i | 3.2
CC(=O)Oc1ccc(C(=O)Nc2cccc(C(=O)Nc3ccccc3C(=O)O)c2)cc1 | i | -0.25
CS(=O)(=O)N(CC(=O)NCc1ccc2c(c1)OCO2)c1cccc(Cl)c1 | i | 1.8
CCC(C(=O)NC(C)(C)C)N(Cc1ccccc1Cl)C(=O)c1snc(C(N)=O)c1N (configuration not stated) | i | -0.63
O=C(C[n+]1cccc2ccccc21)c1ccc([N+](=O)[O-])cc1 | i | 1.6
CC1CCN(CCCNC(=O)c2ccc(N3CCCC3=O)cc2)CC1 | i | -2.5
CC(CCc1ccccc1)NC(=O)c1ccc(Br)cc1 (configuration not stated) | i | 3.1
CCCCCCCSc1nsc(N)n1 | i | 0.01
COC(=O)c1c(-n2c(C)cc(C=O)c2C)sc2c1CCCC2 | i | 0.39
COc1ccc(-c2csc(Nc3cc(C)ccn3)n2)cc1OC | i | 2.1
O=C(CN1CCC(c2nc3ccccc3s2)CC1)N1CCCCC1 | i | -2.5
O=[N+]([O-])c1cc(-c2n(-c3ccccn3)c3ccccc3[n+]2-c2ccccn2)ccc1Cl | i | 1.9
CC(=O)Nc1ccc2nc(NC(=O)COc3ccc([N+](=O)[O-])cc3)sc2c1 | i | -0.45
CCn1ccnc1CN(C)Cc1cn(-c2ccc(C)cc2)nc1-c1ccc(F)cc1 | i | -0.14
CC1(C)Cc2cccc(OCC(=O)NCCc3ccccc3)c2O1 | i | -1.2
CCn1cc(S(=O)(=O)CC(=O)Nc2cccc(C)c2)c2ccccc21 | i | 0.44
CCC(C)(C)NC(=O)c1ccc(Br)o1 | i | -0.19
CC(=O)Nc1ccc(CN2CCc3c([nH]c4ccccc34)C2c2ccccn2)cc1 (configuration not stated) | i | 2.9
COc1ccc(/C=N/NC(=O)C2C(C=C(Cl)Cl)C2(C)C)c(OC)c1 (configuration not stated) | i | 0.44
Nc1nc2sc3c(c2cc1C(=O)N1CCOCC1)CCCC3 | i | 0.41
COC(=O)c1ccccc1S(=O)(=O)N1CCC(C(=O)OCC(=O)c2ccccc2OC)CC1 | i | 0.16
CC(NC(=O)CCNC(=O)c1ccc(Br)cc1)c1ccc(S(N)(=O)=O)cc1 (configuration not stated) | i | 0.1
CCOC(=O)c1cc(-c2ccccc2)sc1NC(=O)CSc1nnc(N)s1 | i | 0.56
CC(=O)N1c2ccc(S(=O)(=O)N(C)CC(=O)NCc3ccc(C)cc3)cc2CC1C (configuration not stated) | i | 0.88
CCCNC(=O)C1CCCN(S(=O)(=O)c2ccc3c(c2)CC(C)N3C(=O)C2CC2)C1 (configuration not stated) | i | -1.5
CCCn1c(NCc2cc(OC)ccc2OC)nc2ccccc21 | i | -0.71
CN1CCN(S(=O)(=O)c2ccc(Cc3ccc(S(=O)(=O)N4CCN(C)CC4)cc3)cc2)CC1 | i | -1
Cc1cc(C)n2nc(N)c(N=Nc3ccc4c(c3)OCO4)c2n1 | i | -0.4
COc1ccccc1NC(=O)N1CCN(CCc2ccccc2)CC1 | i | -0.08
O=C(Nc1ccc(NC(=O)c2ccco2)c(Cl)c1)c1ccc2c(c1)OCCO2 | i | 2
CC(=O)CC(=O)Nc1cccc2c1CCCC2 | i | 0.03
NS(=O)(=O)c1ccc2nc(NC(=O)c3ccc4c(c3)OCCO4)sc2c1 | i | 0.51

Entries of single compounds, quoted from the list. Screens in order: KCNQ2 block | KCNQ2 block baseline
Shown for CCCC1CC(C)(C(=O)Cn2[nH]c(=O)ccc2=O)OC1=O (configuration not stated) = i | -0.68
Shown for COC(=O)C1=C(C(=O)OC)[C@@H]2N(C)c3ccc(OC)cc3[C@@]23C[C@@H](C(=O)OC)N(C(=O)CC(C)C)C3=N1 = i | -0.86
Shown for CCCNC(=O)C1CCCN(S(=O)(=O)c2ccc3c(c2)CC(C)N3C(=O)C2CC2)C1 (configuration not stated) = i | -1.5
Shown for O=C(NC1=NCCS1)c1cc(Cl)ccc1Cl = i | 0.83
Shown for Cc1ccc(NC(=O)c2ccccc2NS(=O)(=O)c2ccc(F)cc2)cc1S(=O)(=O)N1CCCCC1 = i | -1.5

Continuation.
SMILES | KCNQ2 block | KCNQ2 block baseline
COc1ccc(CCC(=O)Nc2cc(Cl)ccc2N2CCN(C)CC2)cc1 | i | -0.01
COC(=O)CCCC1=CC2=C(c3ccccc3)C(=O)C(C)(OC(=O)C3CCCC3)C(=O)C2=CN1CCN1CCOCC1 (configuration not stated) | i | 0.86
CC1C(=O)N2CCCc3cc(NC(=O)C(=O)NCCN4CCOCC4)cc1c32 (configuration not stated) | i | 0.88
OCCC1CN(Cc2ccsc2)CCN1C1CCCC1 (configuration not stated) | i | 0.27
O=C(COc1ccc2ccccc2c1)Nc1cccc2cccnc12 | i | -0.38
c1ccc2[nH]c(CSc3ncnc4c3oc3ccccc34)nc2c1 | i | 1.5
S=c1[nH]nc(CCc2ccc(Cl)cc2)o1 | i | -0.44
C/C(=N\NC(N)=S)c1ccc(Cl)s1 | i | 1.7
Cn1nnnc1SCC(=O)NC(C)(C)C | i | 1.1
CC(Sc1nnc(-c2ccccc2F)n1C1CC1)C(N)=O (configuration not stated) | i | -0.56
Cc1ccccc1Nc1c(F)c(F)c(F)c(F)c1C(=O)O | i | 0.65
CCCCCN1C/C=C\C(c2ccc(OC)cc2)N(Cc2ccc(F)cc2)C(=O)C1 (configuration not stated) | i | 0.77

The list goes on; the last four above are carried over.
SMILES | KCNQ2 block | KCNQ2 block baseline
Cn1nnnc1SCC(=O)NC(C)(C)C | i | 1.1
CC(Sc1nnc(-c2ccccc2F)n1C1CC1)C(N)=O (configuration not stated) | i | -0.56
Cc1ccccc1Nc1c(F)c(F)c(F)c(F)c1C(=O)O | i | 0.65
CCCCCN1C/C=C\C(c2ccc(OC)cc2)N(Cc2ccc(F)cc2)C(=O)C1 (configuration not stated) | i | 0.77
CCOC(=O)c1c(C)nc(SC)c(C#N)c1-c1ccccc1 | i | 0.11
COc1ccc(Nc2nc(NCCO)nc(OC)n2)cc1 | i | 0.46
CCn1c(SCC(=O)NCC2CCCO2)nc2c(c1=O)SCC2 (configuration not stated) | i | 0.35
CCC(C)(C)NC(=O)c1cc(C(=O)OC)cc([N+](=O)[O-])c1 | i | 0.13
O=C(C(=O)N1CCc2ccccc2C1)c1cn(CC(=O)N2CCCC2)c2ccccc12 | i | 2
Cc1ccc(SCCC(=O)NCCSCc2ccccc2C)cc1 | -7.8* | 0.87*
CCN(CC)C(=O)CSc1nc2c(sc(=S)n2Cc2ccco2)c(=O)n1-c1ccccc1 | i | -0.47
O=C(NNS(=O)(=O)c1ccccc1)c1cccc(F)c1 | i | -0.06
Cc1ccc(N(C)C(=O)c2ccc3c(Cl)c4c(nc3c2)CCC4)cc1C | i | -0.4
CC(=O)Nc1c(F)cc(Br)cc1F | i | -0.58
COc1cc(C(=O)Nc2ccc3c(c2)Cc2ccccc2-3)cc(OC)c1OC | i | -0.65
Nc1c(S(=O)(=O)c2ccccc2)cnc2c(-c3ccc(F)cc3)cnn12 | i | 1.1

6 entries drawn at random from those above:
SMILES | KCNQ2 block | KCNQ2 block baseline
CCOC(=O)c1c(C)nc(SC)c(C#N)c1-c1ccccc1 | i | 0.11
Cc1ccc(SCCC(=O)NCCSCc2ccccc2C)cc1 | -7.8* | 0.87*
O=C(NNS(=O)(=O)c1ccccc1)c1cccc(F)c1 | i | -0.06
CCC(C)(C)NC(=O)c1cc(C(=O)OC)cc([N+](=O)[O-])c1 | i | 0.13
O=C(C(=O)N1CCc2ccccc2C1)c1cn(CC(=O)N2CCCC2)c2ccccc12 | i | 2
CCn1c(SCC(=O)NCC2CCCO2)nc2c(c1=O)SCC2 (configuration not stated) | i | 0.35

(listing goes on)
SMILES | KCNQ2 block | KCNQ2 block baseline
CCc1c(C)sc(NC(=O)c2cnn3cccnc23)c1C#N | i | 0.32
CC(C)CNC(=O)c1nc(-c2ccccc2)n(-c2ccccc2)n1 | i | -0.28
COc1ccccc1OC1OC2COC(c3ccco3)OC2C(O)C1NC(C)=O (configuration not stated) | i | 0.69
COc1cccc(CN2CCC(C(=O)N3CCN(c4ccccc4F)CC3)CC2)c1 | i | 0.05
N#Cc1nn(-c2ccccc2)nc1N1CCCCC1 | i | 0.09
O=C(NCCCn1ccnc1)C(=O)NCC1OCCN1S(=O)(=O)c1cc(F)ccc1F (configuration not stated) | i | 0.84
COc1ccc(S(=O)(=O)N2CCN(C(=O)Nc3ccccc3OC)CC2)cc1 | i | -0.15
CC(C)CCOc1ccccc1C(N)=O | i | -0.37
O=C(CCc1nnc(CCCc2ccccc2)o1)NC(C1CC1)C1CC1 | i | 1.4
O=C(CCl)Nc1c2c(nn1-c1ccccc1)CSC2 | i | -0.49
CC(=O)Nc1ccc(S(=O)(=O)N2CCN(Cc3cccs3)CC2)cc1 | i | 0.02
COc1cccc(NC2=C(Cl)C(=O)OC2OC(=O)c2ccco2)c1 (configuration not stated) | i | -1.1
CCOc1ccccc1NC(=O)COC(=O)CSc1ccc(Cl)cc1 | i | -0.28
COc1ccc(C2c3ccc4ccccc4c3Oc3ncn4nc(Cc5ccccc5)nc4c32)cc1OC (configuration not stated) | i | -0.04
O=C(NCC1CCN(Cc2ccc(F)cc2)CC1)C1CCCN(c2ncnc3c2nc2n3CCCCC2)C1 (configuration not stated) | i | 0.83
CCC1(C)COC2(OC1)C(=O)Nc1ccccc12 (configuration not stated) | i | -0.89
O=C(CCCNC(=O)/C(=C\c1ccccc1F)NC(=O)c1ccccc1)OCc1ccccc1 | i | 0.03
COc1cccc(N2CCN(C(=O)c3ccc4nc(N5CCC(C)CC5)sc4c3)CC2)c1 | i | 1
CCN(CC)C(=O)c1ccccc1NC(=O)c1ccccc1 | i | -1.3
CCOCC(=O)Nc1cc(C(=O)NCCC(C)C)ccc1Cl | i | -0.89
Cc1ccccc1NC(=O)C1CCCN1S(=O)(=O)c1ccc2c(c1)n(C)c(=O)c(=O)n2C (configuration not stated) | i | 0.02
CC1(C)CC(NC(=O)Cc2ccccc2[N+](=O)[O-])CC(C)(C)N1 | i | 0.9
C/C(N)=C(/C#N)C(=O)COC(=O)C1CSC2(c3ccc(F)cc3)CCC(=O)N12 (configuration not stated) | i | -1.9
CCOC(=O)CN1N=C(c2ccc(C)cc2)CCC1=O | i | 0.49
CCN(CC)CCN(C(=O)CN1C(=O)CCC1=O)c1nc2cc3c(cc2s1)OCO3 | i | 2.3
Cn1cccc1C(=O)NC(=O)CSc1cccc[n+]1[O-] | i | 0.38
O=C(COc1coc(CN2CCc3ccccc3C2)cc1=O)N1CCOCC1 | i | 0.51

The list is partial. The share of hits here may be higher or lower than overall.
